RGS16-Gao: regulators of human RGS16-Galphao interaction. bead-based flow cytometry RGS16-Galphao binding, fluorescence; actives lie on both sides. O15492+P09471. binding response (% of control), % at 10 µM. hit rate 0.38% among 220,000;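 active = below 25% or above 175%, edge rows of some plates excepted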;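 also: Galphao activated by GDP with aluminum fluoride before binding; 100% = wells without compound and 0% = beads without RGS; some results beyond the cut were filed as inactive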
Target sequence (O15492 whole entry, looked up): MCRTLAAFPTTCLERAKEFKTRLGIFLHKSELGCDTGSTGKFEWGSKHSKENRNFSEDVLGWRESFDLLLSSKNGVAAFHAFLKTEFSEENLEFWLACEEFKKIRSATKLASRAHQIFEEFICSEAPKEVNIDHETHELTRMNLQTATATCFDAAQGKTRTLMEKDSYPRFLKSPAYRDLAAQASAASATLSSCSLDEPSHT
Target sequence (P09471 whole entry, looked up): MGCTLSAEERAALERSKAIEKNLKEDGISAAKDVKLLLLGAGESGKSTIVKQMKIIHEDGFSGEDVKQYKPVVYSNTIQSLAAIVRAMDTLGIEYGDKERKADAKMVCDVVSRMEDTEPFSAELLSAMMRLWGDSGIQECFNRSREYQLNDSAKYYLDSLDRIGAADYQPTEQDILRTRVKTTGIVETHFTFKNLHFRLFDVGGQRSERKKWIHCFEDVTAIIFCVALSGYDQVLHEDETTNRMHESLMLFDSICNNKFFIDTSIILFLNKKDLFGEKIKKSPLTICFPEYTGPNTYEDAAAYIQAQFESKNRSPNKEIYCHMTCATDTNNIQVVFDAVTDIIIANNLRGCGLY
PKD1 inh: PKD1 (human) kinase inhibition. Q15139. PKD1 kinase fluorescence polarization assay. hit rate 0.056% among 200,000. inhibition, %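 (about 10 µM by stock and volumes)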;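 active = inhibition of 50% or more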;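 also: controls were vehicle for no effect and a reference inhibitor for full effect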
HSV replic up: HSV replication enhancement | HSV replication augmentation in cells, fold increase | maximum fold increase | hit rate 0.005% among 220,000 | AID 1956;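 active = peak rise of 1.5-fold or more in the series; tested in PC3 cells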;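 also: first round at 10 µM; read as green reporter fluorescence; hits show the peak of a series up to 25 µM; 1 = signal of infected wells without compound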
GALR2 ag: activates the human galanin receptor 2; O43603; GALR2-expressing cells, agonist activation read-out; activation, %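 (tested at 5 µM)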; hit rate 0.48% among 140,000;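 active = above mean plus 3 SD of all compounds, about 5% in these data, not always enough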;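 also: 0% = vehicle buffer wells and 100% = reference agonist at full effect; tested in CHO reporter cells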
Target sequence (O43603 whole entry, looked up): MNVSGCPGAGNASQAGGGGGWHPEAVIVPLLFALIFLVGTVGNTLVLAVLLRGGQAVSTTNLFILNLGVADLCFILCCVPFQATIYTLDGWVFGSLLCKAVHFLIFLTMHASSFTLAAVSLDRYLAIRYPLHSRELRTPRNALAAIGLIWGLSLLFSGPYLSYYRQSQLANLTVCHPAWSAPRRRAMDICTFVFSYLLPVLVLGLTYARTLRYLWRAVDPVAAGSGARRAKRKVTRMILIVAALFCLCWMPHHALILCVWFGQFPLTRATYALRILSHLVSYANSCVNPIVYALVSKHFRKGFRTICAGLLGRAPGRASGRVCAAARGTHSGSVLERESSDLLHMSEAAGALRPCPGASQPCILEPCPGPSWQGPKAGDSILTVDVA
Insulin prom inh: TRM-6 insulin promoter activity inhibition; AID 1273; TRM-6 cells (human fetal islet line), insulin promoter-eGFP reporter, imaging; reporter expression induced with tamoxifen; hit rate 0.9% among 130,000; inhibition, % at 2 µM;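 active = inhibition above the mean plus 3 SD, with well images judged a real hit on visual review, cut at about 60% in these data, passing the limit was not always enough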
Insulin prom inh cell count: also measured in Insulin prom inh; calls as there; normalized cell count, %; measured here: cell count, toxicity; reference of the scale not given here;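 cells exposed to compound for 48 h; stained nuclei by imaging scaled within each plate; lower means fewer cells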
HSV replic up primary fold: second read-out of HSV replic up, no call of its own (marks repeat the call); fold increase; compound at 10 µM; measured here: primary screen fold increase 10 uM; tested in PC3 cells;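 GFP signal in the first replicate; 1 = infected wells without compound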
An asterisk follows results filed as active; i = inactive; . = not tested or not shown. Rows were taken by chance; any-hit rate near 1.3%.

structure	RGS16-Gao	PKD1 inh	HSV replic up	HSV replic up primary fold	GALR2 ag	Insulin prom inh	Insulin prom inh cell count
Cc1ccc(-c2nn(C(C)(C)C)c3ncnc(NS(=O)(=O)c4ccc([N+](=O)[O-])cc4)c23)cc1	101	-1	i	1	.	.	.
NC(=O)c1ccc(N=Cc2ccc([N+](=O)[O-])s2)cc1	95	-11	i	0.94	-0.5	-55	40
CSCCC(NC(N)=O)C(=O)N(C)CC(=O)Nc1ccc(C)cc1 (centres undefined)	96	-7	i	0.86	-2.5	-13	113
CCOc1ccc(N2C(=O)CC(SCC(=O)O)C2=O)cc1 (centres undefined)	101	-7	i	1.1	.	-7	70
Cc1ccccc1OCCn1cnc2cc([N+](=O)[O-])ccc2c1=O	98	-4	i	0.94	.	.	.
O=C1CSC(=O)N1CCOCCN1C(=O)CSC1=O	107	-9	i	1	0.2	.	.
O=C(Nc1ccc2c(c1)OCCO2)c1ccccc1F	103	14	i	0.97	-0.6	-29	166
COC(=O)COc1ccc(/C=C2/NC(=O)N(CC(=O)OC)C2=O)cc1	97	0	i	0.95	.	.	.
CCc1cccc(NC(=O)Cn2cc3c(n2)CCCC3)c1	97	-8	i	1.1	-0.3	.	.
O=C(/C=C/c1cn(-c2ccccc2)nc1-c1cccs1)NCCN1CCOCC1	97	.	i	0.9	.	.	.
COc1ccc(Cl)cc1NC(=O)N1CCN(S(C)(=O)=O)CC1	94	8	i	0.87	-0.9	19	122
CCOc1ccc(OCCOCCn2ccnc2)cc1	107	0	i	0.94	-2.4	-6	124
COc1cccc(NC(=O)C(Cc2ccccc2)n2cccc2)c1 (centres undefined)	100	.	i	0.99	.	.	.
c1ccc2c(c1)nc1n2CC2CON(C3CCCCC3)C12 (centres undefined)	101	.	i	0.76	.	.	.
N=C1SC(c2ccccc2)C(=O)N1c1ncc(Cc2ccccc2Cl)s1 (centres undefined)	96	-6	i	0.9	-1.7	40	192
CC1(C)C2CCC1(C)C(NC(=O)CCN1CCCCC1)C2 (centres undefined)	98	5	i	0.91	-1.3	.	.
COc1ccc(NC(=O)c2oc3ccccc3c2NC(=O)C2CC2)cc1	98	-3	i	0.73	-1.0	-10	108
Cc1c(C(=O)c2ccc(Cl)c(Cl)c2)cnc2cc3c(cc12)OCO3	100	4	i	0.91	-1.7	38	93
C[N+](C)(C)CCOP(=O)([O-])OC[C@H](O)CO	.	-6	i	0.62	-0.6	26	137
Cc1cccnc1NC(=O)Nc1ccc(F)cc1	105	-12	i	0.89	-1.7	.	.
CCCC(=O)Nc1sc(C(=O)Nc2cccc(N)c2)c(C)c1C(=O)OC	99	-5	i	0.81	.	.	.
O=S(=O)(c1ccc(Oc2ccc(Cl)cc2)c(S(=O)(=O)N2CCCCC2)c1)N1CCCCC1	86	-11	i	0.88	-1.0	-54	73
COc1ccc(-c2nc3ccc(C)cn3c2NCc2ccc3c(c2)OCO3)cc1	100	-5	i	1	.	.	.
CCOc1cc(CNCC2CCCN2CC)cc(Cl)c1OC (centres undefined)	104	-5	i	0.96	.	-345	136
Cc1cc(=O)n2[nH]c(-c3ccco3)nc2n1	101	-2	i	1	-1.4	-29	126
CCOc1ccc(NC(=O)c2cnccn2)cc1	106	-5	i	0.8	-1.9	94*	45*
CC[n+]1c(/C=C(/C)SC)sc2ccccc21	103	-4	i	1.2	-0.6	.	.
COc1cc(/C=C/C(=O)O)cc(S(=O)(=O)Nc2ccccc2SC)c1OC	93	-12	i	0.91	-2.0	4	129
COc1ccc(-c2noc(CN3CCN(c4ccccc4F)CC3)n2)cc1OC	101	-5	i	0.89	-1.4	30	89
COc1ccc(-c2nc(N)nc(C)c2Oc2ccccc2Br)c(O)c1	95	0	i	0.79	-2.3	-97	79
CC(C)(Oc1ccc(Cl)cc1)C(=O)N/N=C/c1cn[nH]c1-c1ccccc1	103	-6	i	1.1	-1.5	-41	122
COc1nc2ccccc2nc1OC	110	1	.	.	.	.	.
CCN(CC)S(=O)(=O)c1ccc(NC2c3ccccc3C(=O)N2c2ccc(C)cn2)cc1 (centres undefined)	99	4	i	0.92	-1.5	.	.
CCSc1ccccc1C(=O)N1CCN(c2ccccc2F)CC1	99	0	i	1.2	-2.2	14	102
O=C(Nc1nc(-c2ccccc2)c(-c2ccccc2)s1)c1ccc(S(=O)(=O)N2CCCCC2)cc1	100	-11	i	0.9	-2.1	27	102
O=C(CSC(=S)N1CCOCC1)N1N=CCC1c1ccccc1 (centres undefined)	197	-1	i	0.8	-3.9	-21	73
CN(/N=C/c1c[nH]c2ccccc12)c1cnn(-c2ccc(F)c(Cl)c2)c(=O)c1Cl	83	-7	i	1.2	-4.8	4	132
C=CCNC(=O)CC(=O)N/N=C/c1cccc(Br)c1	115	-10	i	0.99	-3.9	11	126
COc1cc(CNCCc2ccccc2)cc(Br)c1OCC(=O)Nc1ccccc1C	107	0	i	0.85	.	.	.
CC(/C=C1\SC(=S)N(NC(=O)c2ccncc2)C1=O)=C\c1ccccc1	98	.	i	0.96	.	.	.
O=C(CC1SC(=Nc2ccc(OC(F)F)cc2)N(CCC2=CCCCC2)C1=O)Nc1ccccc1F (centres undefined)	25*	-6	i	0.83	-2.3	10	38
Cc1sc(NC(=O)C2C3CCC(O3)C2C(=O)O)c(C(=O)OC(C)C)c1-c1ccc(Cl)cc1 (centres undefined)	92	-9	i	0.94	-3.1	17	133
O=C1CC(C(=O)Nc2ccccc2C(=O)O)C(c2ccccc2)O1 (centres undefined)	78	0	i	0.85	-1.6	36	102
Cn1c(=NC(=O)CCl)sc2ccccc21	99	0	i	0.56	-1.9	-186	1
CCc1nnc(SCC(=O)Nc2ccc(N3CCOCC3)cc2)o1	97	4	i	1	-1.6	.	.
CC(=O)Nc1cccc(C(=O)N/N=C/c2ccc(C)o2)c1	63	-7	i	1	.	.	.
C/C(=N/NC(=O)c1ccc(C)s1)c1cccc(NC(=O)COc2ccc(Cl)cc2Cl)c1	108	-3	i	0.9	-2.4	23	215
CC(C)N1C[C@@]23C=C[C@@H](O2)C(C(=O)OCc2ccccc2)[C@H]3C1=O (some centres undefined)	105	-6	i	1	-0.3	.	.
CCOc1ccc(NC(=S)NC(=O)c2c(Cl)c(C)nn2C)c([N+](=O)[O-])c1	103	-10	i	0.99	8.6*	-29	96
Cc1ccc(OCC(=O)NCC(=O)n2nc(C)cc2C)cc1	102	-1	.	.	-1.5	.	.
Cc1occc1C(=O)N1CCN(c2ncccn2)CC1	101	-2	i	0.87	-2.9	-62	142
Cc1cccc(N(CC(=O)NCC2CCCO2)C(=O)CCC(=O)Nc2cc(C)on2)c1 (centres undefined)	100	-9	i	0.83	-1.3	33	100
O=C(NN=C1CCCCCC1)c1ccc2c(c1)OCO2	103	-4	i	0.86	.	18	42
Cc1cccc(-c2c3c(=O)n(C)c(=O)n(C)c3c3nnc4ccccc4n23)c1	.	2	.	.	-2.2	-42	30
CCOC(=O)Cc1nnc(NC(=O)CSc2nnc3c(n2)[nH]c2ccccc23)s1	111	-9	i	0.96	.	-36	91
COc1ccc(S(=O)(=O)Nc2c(C)n(C)n(-c3ccccc3)c2=O)cc1	92	0	i	0.9	-3.5	.	.
O=C(Cc1ccc(Cl)c(Cl)c1)Nc1cccc(S(=O)(=O)N2CCOCC2)c1	103	-3	i	0.85	.	-36	64
Cc1ccc(NC(=S)NC(=O)c2ccc(-c3ccccc3)cc2)c(C)c1	96	-2	i	0.98	-1.9	.	.
CCCCN(CC)C(=O)Cn1cnc2ccc(S(=O)(=O)N3CCC(C)CC3)cc2c1=O	64	-9	i	1	-1.1	-21	84
Cc1ccccc1NC(=O)CSCc1nc(N)nc(Nc2ccccc2C)n1	88	3	i	0.88	0.4	.	.

As a short view, twelve of the compounds above.
structure	RGS16-Gao	PKD1 inh	HSV replic up	HSV replic up primary fold	GALR2 ag	Insulin prom inh	Insulin prom inh cell count
CCc1nnc(SCC(=O)Nc2ccc(N3CCOCC3)cc2)o1	97	4	i	1	-1.6	.	.
CC(=O)Nc1cccc(C(=O)N/N=C/c2ccc(C)o2)c1	63	-7	i	1	.	.	.
C/C(=N/NC(=O)c1ccc(C)s1)c1cccc(NC(=O)COc2ccc(Cl)cc2Cl)c1	108	-3	i	0.9	-2.4	23	215
CC(C)N1C[C@@]23C=C[C@@H](O2)C(C(=O)OCc2ccccc2)[C@H]3C1=O (some centres undefined)	105	-6	i	1	-0.3	.	.
CCOc1ccc(NC(=S)NC(=O)c2c(Cl)c(C)nn2C)c([N+](=O)[O-])c1	103	-10	i	0.99	8.6*	-29	96
Cc1ccc(OCC(=O)NCC(=O)n2nc(C)cc2C)cc1	102	-1	.	.	-1.5	.	.
Cc1occc1C(=O)N1CCN(c2ncccn2)CC1	101	-2	i	0.87	-2.9	-62	142
Cc1cccc(N(CC(=O)NCC2CCCO2)C(=O)CCC(=O)Nc2cc(C)on2)c1 (centres undefined)	100	-9	i	0.83	-1.3	33	100
O=C(NN=C1CCCCCC1)c1ccc2c(c1)OCO2	103	-4	i	0.86	.	18	42
Cc1cccc(-c2c3c(=O)n(C)c(=O)n(C)c3c3nnc4ccccc4n23)c1	.	2	.	.	-2.2	-42	30
CCOC(=O)Cc1nnc(NC(=O)CSc2nnc3c(n2)[nH]c2ccccc23)s1	111	-9	i	0.96	.	-36	91
COc1ccc(S(=O)(=O)Nc2c(C)n(C)n(-c3ccccc3)c2=O)cc1	92	0	i	0.9	-3.5	.	.

The list goes on.
structure	RGS16-Gao	PKD1 inh	HSV replic up	HSV replic up primary fold	GALR2 ag	Insulin prom inh	Insulin prom inh cell count
Cc1c(N=c2scc(-c3ccccc3)n2C)c(=O)n(-c2ccccc2)n1C	92	-6	i	0.86	.	.	.
O=C(CSc1nnc2ccccn12)NNC(=O)c1ccc(Br)cc1	101	-6	i	0.96	.	.	.
CCOc1ccc(C2C(C(=O)c3ccco3)=C(O)C(=O)N2CCCn2ccnc2)cc1 (centres undefined)	98	6	i	0.84	-2.8	-42	108
O=C(CSc1ncnc2c(-c3ccc(Cl)cc3)nsc12)c1ccccc1	110	-2	i	0.98	-0.8	-45	55
N/C(=N\OC(=O)N1c2ccccc2Sc2ccccc21)c1ccccc1	112	-4	i	0.88	1.4	50	94
COc1ccc(OC)c(S(=O)(=O)Nc2ccc(C(N)=O)cc2)c1	99	0	i	0.96	-3.8	-31	115
O=C(COC(=O)c1ccccc1Nc1ccc(SC(F)F)cc1)NCc1ccco1	102	-4	i	1.2	-3.6	38	93
CSCCOC(=O)C1=C(C)Nc2ccc(C)cc2S1	99	-6	i	0.93	-1.7	36	113
Cc1ccc(S(=O)(=O)NCCSc2nnnn2C)cc1	98	10	i	0.9	-3.0	0	97
O=C(NCc1cccc(CNC(=O)C(=O)NCc2ccco2)c1)C(=O)NCc1ccco1	93	-3	i	0.99	.	.	.
CC(=O)c1ccccc1NC(=O)CN1C(=O)CS/C1=C\c1nc(-c2ccc(C)cc2)cs1	98	-10	i	1	.	24	134
CC(=O)c1sc(NCCOc2ccc(C)cc2)nc1C	97	-1	i	0.75	.	.	.
COC(=O)CSC1=C(C#N)C(c2ccc3c(c2)OCO3)C2=C(CCCC2=O)N1 (centres undefined)	104	0	i	0.89	-4.4	-3	33
CC(=O)c1cccc(NC(=O)CCC2CCCC2)c1	91	-7	i	0.88	-0.5	-15	175
Cc1oc(-c2cccc(Cl)c2)nc1CN1CCC(C(=O)NCc2cccnc2)CC1	103	-6	i	0.97	-2.9	.	.
CCC(=O)N1c2ccc(C)cc2C2=NNC(=S)NC21O (centres undefined)	104	0	i	0.99	-1.3	.	.
CCCCn1nc2cc(C(=O)NCCCCc3ccccc3)ccc2c1OCC	104	-7	i	0.95	-1.4	.	.
COc1ccc(/C=N/NC(=O)c2ccccc2O)cc1CSc1ccccn1	105	4	i	0.94	-0.3	-87	113
FC(F)(F)c1cc(-c2ccc3c(c2)OCO3)nc(NCc2ccco2)n1	95	10	i	1.1	-1.2	-20	121
O=C(CCSc1nnc(-c2ccncc2)o1)Nc1cccc(Cl)c1	105	-15	i	0.9	.	.	.
CCc1nnc(NC(=O)CSc2nnc(-c3ccco3)o2)s1	98	4	i	0.96	.	12	140

Screens deposited in PubChem by several laboratories.
